# Bioassay records from PubChem BioAssay.
# D2 PAM: Beta-Arrestin HTS for Positive Allosteric Modulators of the Human D2 Dopamine Receptor: Potentiators; AID 624464, 2012; D(2) dopamine receptor (Homo sapiens), P14416; DiscoveRx D2 beta-arrestin cells, luminescence, 90 min; 100% = 57 uM dopamine signal; potentiation, % (no concentration beside the values); 0.23% of 360,000 active; active = potentiation of 50% or more; inconclusive = 30% to 50%; inactive = 30% or less;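 also: compound concentration not given in the record; tested on top of an EC20 dose of dopamine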
# Target sequence (P14416 whole entry, looked up): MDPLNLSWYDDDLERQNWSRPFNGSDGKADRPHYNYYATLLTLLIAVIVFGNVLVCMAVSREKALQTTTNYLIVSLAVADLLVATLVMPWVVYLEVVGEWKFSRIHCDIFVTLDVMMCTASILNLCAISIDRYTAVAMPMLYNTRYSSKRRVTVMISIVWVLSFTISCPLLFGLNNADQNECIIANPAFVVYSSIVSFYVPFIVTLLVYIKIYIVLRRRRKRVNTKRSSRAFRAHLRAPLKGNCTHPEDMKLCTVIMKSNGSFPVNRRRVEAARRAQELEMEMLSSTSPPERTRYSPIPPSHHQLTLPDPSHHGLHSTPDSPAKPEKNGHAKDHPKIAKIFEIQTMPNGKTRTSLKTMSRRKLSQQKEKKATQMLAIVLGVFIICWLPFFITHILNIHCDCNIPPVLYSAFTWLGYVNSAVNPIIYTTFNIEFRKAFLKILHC
#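 D2 cells co-treated with compound plus 50 nM dopamine (EC20) for 90 min at 37 deg C to detect potentiation. Beta-arrestin recruitment was read as enzyme-fragment luminescence after 1 h at ambient temperature. Full response was set by 57 uM dopamine.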
# gsp antag: qHTS for Antagonists of gsp, the Etiologic Mutation Responsible for Fibrous Dysplasia/McCune-Albright Syndrome: qHTS. gsp-mutant cells, cAMP HTRF, 30 min; control for the full effect not named in the record. Potency, µM (highest dose often 76.9 µM), for the others: at the highest dose activity change, negative = inhibition, usual class: inhibitors. 0.4% of 340,000 active. AID 624288, 2012; active = falling curve of any shape with a large fitted effect; inconclusive = falling curve, mostly with a smaller effect; inactive = flat or rising curve; cell line not stated here;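 also: intracellular cAMP measured with PDE inhibitor Ro 20-1724 present during compound exposure; potency is read from the fitted curve at half-maximal effect; % is scaled to controls: 0 for no effect and ±100 for the full control effect; nearly all actives have a fitted effect of over 65% in size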
#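 Cells, 2000/well, grown 16–24 h in DMEM 10% FBS with 0.5 mg/ml G418, then compounds plus […] (300 uM addition stock), 30 min at 37C. cAMP read by HTRF (cAMP-d2 and anti-cAMP antibody-K in lysis buffer) after 30 min RT.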
# Sfp inh: qHTS Assay for Inhibitors of Bacillus subtilis Sfp phosphopantetheinyl transferase (PPTase) | 3.5% of 310,000 active | Biochemical Sfp PPTase activity, qHTS | Potency, µM, inactives show max response, negative = inhibition, actives largely listed as inhibitors | 4'-phosphopantetheinyl transferase ffp (Bacillus subtilis), Q9F4F7; active = well fitted inhibition curve with a large enough effect; inconclusive = small, poorly fitted or top-dose-only effect, or another doubt; inactive = no such curve, though single readings can be large or run the other way;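 also: the enzyme is Sfp with the accession as filed and its product quenches rhodamine fluorescence; potency is read from the fitted curve at half-maximal effect; 0% = enzyme reaction without inhibitor and -100% = no enzyme wells; top concentration of the series not given in the record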
#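 Compounds were incubated with enzyme (final 15 nM) for 15 min at room temperature before substrate addition started the reaction. Fluorescence at 525 nm excitation, 598 nm emission was recorded immediately and after 30 minutes.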
# gsp ag: qHTS for Agonist of gsp, the Etiologic Mutation Responsible for Fibrous Dysplasia/McCune-Albright Syndrome: qHTS; 0.13% of 340,000 active; gsp mutant cells, cAMP HTRF, 30 min; control for the full effect not named in the record; Potency, µM (titrated, usually from 76.9 µM), inactives show at the highest dose activation (cAMP increase), hits mostly activators; active = well fitted activation curve with a large enough effect; inconclusive = small, poorly fitted or top-dose-only effect, or another doubt; inactive = no such curve, though single readings can be large or run the other way; cell line not stated here;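 also: phosphodiesterase inhibitor Ro 20-1724 added with compounds to block cAMP breakdown; potency is read from the fitted curve at half-maximal effect; nearly all actives have a fitted effect of over 60% in size; about a fifth of the inactives were tested at one dose only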
#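 Cells in DMEM/10% FBS with G418 were pretreated with compounds in DMSO plus […] (300 uM stock) for 30 min at 37C. cAMP was measured by HTRF (cAMP-d2 plus anti-cAMP antibody-K) after 30 min at room temperature.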
# Menin MLL FP FL: qHTS Assay for Inhibitors Targeting the Menin-MLL Interaction in MLL Related Leukemias: Competition With Fluorescein Labeled MLL-derived Peptide; Fluorescence polarization, fluorescein-MLL peptide displacement from menin; 290,000 tested, under 10 active; FP activity change, % at 61.4 µM; inconclusive = falling polarisation curve, or a change in total fluorescence; inactive = total fluorescence flat and polarisation flat or rising; no compound was filed as active; the % refers to the polarisation; negative = inhibition;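 also: % of control where 0% means no effect; inhibitors lower the polarisation; unlabelled MLL peptide was the positive control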
# TRPV1 PAM: HTS Assay for Compounds that Act as Potentiators of the Vanilloid Receptor 1. potentiation, % at 8.33 µM. TRPV1-expressing cells, Fluo-8 calcium influx, capsaicin EC20 potentiation; host cell line not named in the record; control for the full effect not named in the record. 0.02% of 320,000 active. Transient receptor potential cation channel subfamily V member 1 (Homo sapiens), Q8NER1. AID 540277, 2011; active means potentiation above 80%; inconclusive means 30% to 80%; inactive means below 30%; also: 0% is about no effect
#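 TRPV1-expressing cells were cultured overnight at 35.5C and loaded with Fluo-8 calcium dye for 40 to 90 min at room temperature. After a 10 s baseline, compound was added and calcium influx was read kinetically for 3 min (ex 480/em 520 nm).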
# ClpP mod: qHTS Assay for Activators of ClpP; ATP-dependent Clp protease proteolytic subunit (Bacillus subtilis (strain 168)), P80244; purified B. subtilis ClpP, FRET peptide cleavage, 20 min; Potency, µM (titrated, usually from 57.5 µM), for the others: at the top dose activity change, negative = active; 1.9% of 340,000 active; active = well fitted falling curve with a large enough effect; inconclusive = small, poorly fitted or top-dose-only effect; inactive = no such curve, though single readings can be large or run the other way; also: potency is read from the fitted curve at half-maximal effect; the source files actives as falling curves though it sought activators and does not explain the sign; nearly all actives have a fitted effect of over 65% in size; many hits overshoot -100%
# Target sequence (P80244 whole entry, looked up): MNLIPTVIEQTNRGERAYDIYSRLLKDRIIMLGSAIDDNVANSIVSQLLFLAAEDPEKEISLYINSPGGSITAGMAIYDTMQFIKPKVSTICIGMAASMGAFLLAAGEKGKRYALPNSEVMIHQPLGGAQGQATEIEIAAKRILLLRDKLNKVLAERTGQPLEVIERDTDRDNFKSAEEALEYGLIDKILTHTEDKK
#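 Buffer: 100 mM Tris/HCl pH8, 100 mM KCl, 0.05% low protease BSA, 2.5% glycerol, 0.01% Tween-20. ClpP 10 microg/mL final; 20 min RT; delta FRET normalized to ADEP and DMSO controls.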
# An asterisk follows results filed as active; ? = inconclusive; . = not tested or not shown; [ ] = another dose, or the depositor's remark.
SMILES,D2 PAM,gsp antag,Sfp inh,gsp ag,Menin MLL FP FL,TRPV1 PAM,ClpP mod
O=C(COC(=O)C1CC2C=CC1C2)Nc1ccc([N+](=O)[O-])cc1 (stereo not given),-6,-2%,.,-16%,.,.,.
O=C(O)c1ccc(CN2C(=O)c3cccc4c([N+](=O)[O-])ccc(c34)C2=O)cc1,24,-20%,?,-18%[15.4 µM],?,14,.
C[C@@H]1CN([C@@H](C)CO)S(=O)(=O)c2ccc(Br)cc2O[C@H]1CN(C)C(=O)C1CCC1,3,.,.,6%,.,.,-1.8%
O=C(CNS(=O)(=O)c1ccc(Cl)cc1)NC1CCCCC1,2,11%,.,-31%[inhibitor],.,-14,-0.4%
Cc1ccc(S(=O)(=O)CC(=O)Nc2nc3ccccc3s2)cc1,-6,-5%,10%,2%,0.8,2,.
Cc1ccc(Nc2nc(N)c([N+](=O)[O-])c(NCCO)n2)cc1,-13,?,3%,1%,-2.6,3,-1.9%
COC(=O)C=C1CCC2C3CCC4=CC(=O)C(Br)CC4(C)C3C(=O)CC12C (stereo not given),-3,-5%,.,-5%[15.4 µM],.,.,0.3%
NNC(=O)c1cc2cc(OC(F)(F)F)ccc2[nH]1,6,-9%,12%,8%[15.4 µM],-2.1,-23,0.5%
C=CCn1c(CSc2nc3ccccc3s2)nnc1SCC(=O)OCC,-3,-19%,6%,21%,-0.6,-9,1.1%
CSc1cccc(CN(C)C(=O)C2CCC(=O)N(CCCN3CCCC3=O)C2)c1 (stereo not given),-9,-2%,4%,-3%,.,20,1.5%
O=C(COc1ccc(Br)cc1)Nc1nnc(-c2cccnc2)s1,-4,-11%,-4%,-9%,4.7,.,-3.4%
CCOC(=O)CNC(=O)CSc1nnc(C)c(=O)[nH]1,-13,18%,-20%,?,5.5,-7,0.7%
Cc1ccccc1NC(=O)NC1CCCCC1C (stereo not given),-5,4%,17%,-7%[15.4 µM],-2.8,-15,.
CCCOc1ccc(CSc2nnc(CCC)n2N)cc1,-1,7%,7%,28%,-1.9,-12,2.0%
CC(C)COC(=O)N(C)C[C@@H]1OCc2cnnn2CCCC(=O)N([C@H](C)CO)C[C@@H]1C,1,.,.,-14%,.,.,0.8%
C=C1CCN([C@@H](CC(C)C)C(=O)NCCC(C)C)S(=O)(=O)c2ccccc21,-6,-8%,.,.,.,.,-3.2%
COC(=O)c1ccc(-c2noc(CN(Cc3nccn3C)C(C)C)n2)cc1,-4,-7%,10%,5%[15.4 µM],-9.1,10,.
Cc1ccc(Nc2nc(Oc3ccc(OCc4ccccc4)nn3)nc(N3CCOCC3)n2)cc1,-14,-3%,7%,-13%,3.6,-6,?
CC1=[N+](C)c2c(ccc3cccnc23)C1(C)C,22,.,11µM*,5%[15.4 µM],?,25,.
CCOC(=O)C(=N/O)/C(C)=N/NC(=O)C(=O)Nc1cc(Cl)ccc1Cl,-7,-13%,11%,8%[15.4 µM],6.3,12,.
Cc1ccc(CC(=O)Nc2ccc(F)c([N+](=O)[O-])c2)cc1,-13,10%,15%,-20%,9.3,-24,2.2%
COc1ccc(/C=C(/NC(=O)c2ccc(Br)cc2)C(=O)N2CCOCC2)cc1,15,-14%,9%,-7%[15.4 µM],.,29,0.6%
CCC(C)(C)n1nnnc1C(c1ccccc1)N1CCc2ccccc2C1 (stereo not given),-7,4%,15%,12%,-0.8,3,-0.9%
COc1ccc(/C(C)=N/NC(=O)Cc2ccc(Cl)cc2)cc1,-9,-12%,-7%,-25%[15.4 µM],-0.6,9,-1.1%
Cc1cc(C)n2nc(CC(=O)NNC(=O)c3ccccc3Cl)nc2n1,-4,28%,3%,-58%[inhibitor],-0.3,?,3.0%
SMILES,D2 PAM,gsp antag,Sfp inh,gsp ag,Menin MLL FP FL,TRPV1 PAM,ClpP mod
CCCn1nc(C(=O)NCC2COc3ccccc3O2)c2ccccc2c1=O (stereo not given),6,-11%,.,-7%,.,-1,-0.9%
O=C(O)CC1CCC1CC(=O)O (stereo not given),-1,4%,.,-65%[inhibitor],.,.,-2.3%
C#CCOCCOCCOCCNc1nc(N2CCN(C(=O)CCCCCCCCCCNC(=O)[C@H](CCCCN)n3cc(C)nn3)CC2)nc(N2CCN(C(=O)CCCCCCCCCCNC(=O)[C@H](CO)n3cc(CCCSC)nn3)CC2)n1,-4,-14%,.,4%,.,13,-0.3%
c1ccc2cc(CNCc3cccc4ccccc34)ccc2c1,-34,3%,-3%,-5%[15.4 µM],-0.8,?,-2.3%
Cc1ccc2c(c1)c1c3n2CCN(CC(O)CNC(C)C)C3CCC1 (stereo not given),-3,0%,6%,-7%,1.9,0,.
O=[N+]([O-])c1ccc2c([N+](=O)[O-])ccc3c2c1CC3,16,.,.,-4%,.,.,1.5%
C/C(=N\NC(=O)c1ccco1)c1cc2ccccc2o1,-2,9%,-7%,-70%[inhibitor],2.4,13,-4.5%
CC1CCN(C(=S)NC2CCCCC2)CC1,-12,10%,11%,-2%,0.0,-24,0.6%
COC(=O)c1ccc(CNC(=O)c2ccc(S(=O)(=O)N(C)c3ccccc3OC)cc2)cc1,0,?,.,20%,.,23,-2.4%
CC1CC(C)CN(CCCNS(=O)(=O)c2ccc3c(c2)CCN3C(=O)C2CC2)C1 (stereo not given),-23,10%,19%,?,-6.1,-3,0.0%
O=[N+]([O-])c1ccc(C=NNc2ccccc2)cc1,-7,-6%,.,-3%[15.4 µM],.,.,-1.7%
N#C/C(=C\c1cccnc1)C(=O)Nc1cccc(Cl)c1,-26,0%,-7%,-16%[15.4 µM],0.8,11,0.7%
COc1ccc(S(=O)(=O)N2CCOCC2)cc1NC(=O)c1ccc(S(=O)(=O)N(C)c2ccccc2OC)cc1,-5,-12%,.,22%,.,.,-6.6%
COc1cccc2cc(C(=O)N3CCC(C)CC3)c(=O)oc12,2,11%,-11%,2%,2.1,.,-0.9%
COC(=O)c1ccccc1N(C)C(=O)C12CCC(C)(C(=O)O1)C2(C)C (stereo not given),-9,-10%,11%,-46%[inhibitor],0.1,-1,-1.9%
CCN1CCN(CC(=O)c2ccc(C)cc2)CC1,-10,-3%,79µM*,-7%,-11,-2,-0.5%
O=c1[nH]c2cc(Cl)cc([N+](=O)[O-])c2c2ccc(Cl)cc12,-8,.,.,?,.,.,-1.5%
CC1(c2ccc(Cl)cc2)NC(=O)N(CC(=O)Nc2ccc(F)cc2)C1=O (stereo not given),-5,-4%,18%,6%[15.4 µM],0.7,0,.
CCCc1cc(=O)oc2cc(OCC(=O)NCc3cccs3)ccc12,0,-20%,16%,-4%,10,-10,3.6%
COc1ccc(Br)cc1C(=O)N/N=C/c1cccnc1,-8,2%,10%,25%,-0.8,-1,.
O=C(Nc1c(C(=O)N2CCOCC2)cnn1-c1ccccc1Cl)c1ccco1,-10,10%,11%,-17%,0.4,0,1.5%
COC(=O)c1ccsc1NC(=O)CN1CCN(c2ccc(F)cc2)CC1,-32,-24%,-4%,-31%[inhibitor],2.3,-7,-1.9%
COc1ccc(CC(=O)OCC(=O)NCc2ccc(C)cc2)cc1OC,-17,-3%,.,15%[15.4 µM],.,.,-0.2%
COC(C[C@H]1O[C@@H]1[C@@H](O)COCc1ccccc1)OC,2,2%,12%,.,-1.7,-13,-0.2%
Clc1ccc(CSc2nnc([C@@H]3CCCN3)o2)cc1Cl,-26,3%,16%,9%,5.7,-4,1.4%
SMILES,D2 PAM,gsp antag,Sfp inh,gsp ag,Menin MLL FP FL,TRPV1 PAM,ClpP mod
Cn1ccc2c([N+](=O)[O-])cccc2c1=O,0,4%,8%,?,-7.7,4,-0.4%
C=CCN(CC=C)c1nc2ccccc2nc1C(C#N)C(=O)OCCOC (stereo not given),9,-17%,1%,-3%,?,-5,-28%
Cc1cc(C(=O)OCC(=O)NC(C)c2ccc(F)cc2)c(C)o1 (stereo not given),-3,10%,.,1%,.,-38,2.4%
CCCn1c(SCc2nc3ccccc3s2)n[nH]c1=O,-2,10%,0%,11%[15.4 µM],6.3,-2,.
COc1cccc(NC(=O)Cn2cnc3sc(C)c(S(=O)(=O)N4CCCCC4)c3c2=O)c1,-13,2%,-2%,-2%,1.2,10,-0.8%
CCOC(=O)c1c(C)[nH]c(C(=O)COC(=O)COc2ccccc2C=O)c1C,-11,14%,-10%,-3%[15.4 µM],12,-4,1.6%
COC(=O)C1=C(N)Oc2cc(C)n(CC3CCCO3)c(=O)c2C1c1ccc(Cl)cc1 (stereo not given),-17,2%,7%,?,0.3,-27,-1.3%
CS(=O)(=O)c1ccc2nc(NC(=O)Nc3ccc(Cl)cc3)sc2c1,-1,16%,26%,3%[15.4 µM],11,6,?
COc1ccccc1/C=C/C(=O)OCC(=O)NCc1ccc2c(c1)OCO2,3,-1%,.,10%,.,.,?
COc1ccc(-c2cc(C(F)F)n3ncc(C(=O)Nc4c(C)n(C)n(-c5ccccc5)c4=O)c3n2)cc1,-5,1%,27%,-4%[15.4 µM],0.6,18,.
S=c1[nH]c(-c2ccccc2)cn1/N=C/c1cccs1,-10,-9%,?,31%,3.4,12,.
CCn1c(CNc2ccc(Cl)cc2)nnc1SCc1ccc(Cl)cc1,6,-20%,-1%,-4%,-2.6,2,-1.6%
COCCn1c(-c2ccc(OC)cc2)c(-c2ccc(OC)cc2)oc1=O,1,?,-6%,0%,-3.9,-18,-22%
O=[N+]([O-])c1ccc(S(=O)(=O)NCC(c2ccc3c(c2)OCO3)N2CCOCC2)cc1 (stereo not given),1,.,.,1%,.,.,3.2%
CCC(=O)NC(NC(=S)Nc1ccccc1Br)C(Cl)(Cl)Cl (stereo not given),-4,6%,7%,-16%,0.4,-12,-0.3%
